Assay outcomes as filed in PubChem.
PKD1 inh: inhibitors of human PKD1 kinase | Q15139 | PKD1 kinase fluorescence polarization assay | inhibition, %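 (about 10 µM by stock and volumes)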 | hit rate 0.056% among 200,000 | AID 797;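 active means inhibition of 50% or more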;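 further: controls were vehicle for no effect and a reference inhibitor for full effect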
GALR2 agonist: GALR2 (human) receptor agonism; AID 803; hit rate 0.48% among 140,000; activation, %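 (tested at 5 µM)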; GALR2-expressing cells, agonist activation read-out;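 active means above mean plus 3 SD of all compounds, about 5% in these data, not always enough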;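 further: 0% = vehicle buffer wells and 100% = reference agonist at full effect; tested in CHO reporter cells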
Target sequence (O43603 whole entry, looked up): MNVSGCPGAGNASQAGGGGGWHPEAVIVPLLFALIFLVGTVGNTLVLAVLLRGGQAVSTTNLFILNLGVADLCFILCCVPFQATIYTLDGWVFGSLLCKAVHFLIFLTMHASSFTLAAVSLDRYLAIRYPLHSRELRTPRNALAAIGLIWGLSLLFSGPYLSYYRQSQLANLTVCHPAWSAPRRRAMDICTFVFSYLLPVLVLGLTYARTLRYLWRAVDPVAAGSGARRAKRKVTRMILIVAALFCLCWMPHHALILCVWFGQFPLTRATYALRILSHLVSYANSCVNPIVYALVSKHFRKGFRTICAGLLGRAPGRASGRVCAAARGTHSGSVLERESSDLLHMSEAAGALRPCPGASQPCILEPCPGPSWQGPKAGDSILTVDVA
RGS16-Gao HTS: regulators of human RGS16-Galphao interaction; hit rate 0.38% among 220,000; bead-based flow cytometry RGS16-Galphao binding, fluorescence; actives lie on both sides; O15492+P09471; binding response (% of control), % at 10 µM;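 active means below 25% or above 175%, edge rows of some plates excepted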;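 further: Galphao activated by GDP with aluminum fluoride before binding; 100% = wells without compound and 0% = beads without RGS; some results beyond the cut were filed as inactive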
Target sequence (O15492 whole entry, looked up): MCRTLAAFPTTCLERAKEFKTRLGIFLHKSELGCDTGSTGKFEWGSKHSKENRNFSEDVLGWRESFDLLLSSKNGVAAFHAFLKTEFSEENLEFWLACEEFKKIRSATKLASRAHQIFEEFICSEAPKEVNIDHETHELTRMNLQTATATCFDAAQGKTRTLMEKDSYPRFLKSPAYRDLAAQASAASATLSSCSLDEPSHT
Target sequence (P09471 whole entry, looked up): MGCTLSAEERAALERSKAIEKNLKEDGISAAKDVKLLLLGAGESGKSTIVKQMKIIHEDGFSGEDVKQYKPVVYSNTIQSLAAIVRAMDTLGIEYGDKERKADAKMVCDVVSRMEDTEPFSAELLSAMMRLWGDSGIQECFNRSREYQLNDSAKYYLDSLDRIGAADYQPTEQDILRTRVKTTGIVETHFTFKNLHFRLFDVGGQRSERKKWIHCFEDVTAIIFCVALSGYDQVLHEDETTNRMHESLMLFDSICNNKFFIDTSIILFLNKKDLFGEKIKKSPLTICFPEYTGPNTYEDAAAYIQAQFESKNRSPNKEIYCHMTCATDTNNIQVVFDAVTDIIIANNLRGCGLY
HSV augment: HSV replication enhancement; HSV replication augmentation in cells, fold increase; maximum fold increase; hit rate 0.005% among 220,000; AID 1956;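 active means peak rise of 1.5-fold or more in the series; inconclusive means self-fluorescent or not available for retest; tested in PC3 cells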;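 further: first round at 10 µM; read as green reporter fluorescence; hits show the peak of a series up to 25 µM; 1 = signal of infected wells without compound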
Insulin prom inh: TRM-6 insulin promoter activity inhibition | TRM-6 cells (human fetal islet line), insulin promoter-eGFP reporter, imaging; reporter expression induced with tamoxifen | inhibition, % at 2 µM | hit rate 0.9% among 130,000;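 active means inhibition above the mean plus 3 SD, with well images judged a real hit on visual review, cut at about 60% in these data, passing the limit was not always enough; inconclusive means inhibition over the cutoff but images rejected on review; inactive means inhibition not above the cutoff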
Insulin prom inh cell count: second read-out of Insulin prom inh, no call of its own (marks repeat the call); normalized cell count, %; measured here: cell count, toxicity; reference of the scale not given here;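 cells exposed to compound for 48 h; stained nuclei by imaging scaled within each plate; lower means fewer cells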
HSV augment primary fold: further read-out of HSV augment, marked with its call; fold increase; compound at 10 µM; measured here: primary screen fold increase 10 uM; tested in PC3 cells;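 GFP signal in the first replicate; 1 = infected wells without compound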
The depositor's hits bear a star; i = inactive; ? = inconclusive; nt = not tested or not shown.

SMILES | PKD1 inh | GALR2 agonist | RGS16-Gao HTS | HSV augment | HSV augment primary fold | Insulin prom inh | Insulin prom inh cell count
CCCN=Cc1sc2ccc(OCC)cc2c1O | -1 | 0.6 | 98 | i | 0.85 | 64 | 90
O=S(=O)(c1cccc(S(=O)(=O)N2CCOCC2)c1)N1CCCCC1 | -4 | -1.3 | 101 | i | 1 | 37 | 129
COc1ccc(NN=Nc2nc3c([nH]2)c(=O)n(C)c(=O)n3C)cc1 | nt | nt | 86 | i | 0.97 | nt | nt
Cc1ccc(N/N=C/c2ccc3c(c2)OCCO3)cc1Cl | -12 | 0.2 | 101 | i | 1.2 | nt | nt
CCC(C)[C@@H](C(=O)N1CCNCC1)n1cc(CCCN=C(N)N)nn1 (stereo partly drawn) | 2 | nt | 100 | i | 0.92 | nt | nt
Cc1c(C(=O)OCC2CCCO2)[nH]c2c1C(=O)CC(c1ccco1)C2 (stereo not drawn) | 5 | -1.0 | 99 | i | 0.69 | -18 | 104
CC(=O)c1c(C(C)=O)c(C)n(-c2ccc(C)c(NC(=O)c3ccccc3Cl)c2)c1C | 0 | 1.0 | 103 | i | 0.9 | 13 | 64
O=C(CCn1c(=O)[nH]c2ccsc2c1=O)NCCc1ccc(Cl)cc1 | 3 | -3.2 | 95 | i | 0.85 | 23 | 143
O=C(CCSc1nnc(-c2ccncc2)o1)Nc1cccc2ccccc12 | -1 | -2.3 | 104 | i | 0.96 | 0 | 101
O=C(COC(=O)c1ncc(Cl)c(Cl)c1Cl)NC(=O)NCc1ccccc1 | -5 | nt | 40 | i | 0.89 | nt | nt
CCn1c(CNC(=O)Cc2ccc(OC)cc2)nnc1SCC(=O)NC1CCCCC1 | -9 | -2.6 | 95 | i | 1 | nt | nt
COc1ccc(CNC(=O)CCCOc2cc(=O)n(C)c3ccccc23)cc1 | 8 | -1.2 | 106 | i | 1 | nt | nt
CN(C)c1ccc(C(CNS(=O)(=O)c2ccc(F)c(F)c2)c2c[nH]c3ccccc23)cc1 (stereo not drawn) | 3 | 0.6 | 102 | i | 0.96 | -43 | 94
COc1ccc2c(c1)c(C(O)CN1CCC3(CC1)OCCO3)c(C)n2C (stereo not drawn) | -2 | -1.8 | 107 | i | 1.1 | -50 | 99
O=C(/C=C/c1cccc([N+](=O)[O-])c1)NCCSCc1ccc(Cl)cc1Cl | 1 | -0.5 | 102 | i | 0.94 | 3 | 82
OCCN1CCN(c2ncnc3sc(-c4ccccc4)cc23)CC1 | 4 | nt | 104 | i | 0.74 | 0 | 92
CC(C)Oc1cccc(C(=O)C2CCCN(S(C)(=O)=O)C2)c1 (stereo not drawn) | -5 | nt | 57 | i | 0.94 | nt | nt
CCN1CCCC1CNC(=O)C1c2cc(OC)c(OC)cc2C(=O)N(C)C1c1cccnc1 (stereo not drawn) | -7 | -2.1 | 99 | i | 0.93 | 60 | 53
c1ccc(Nc2nc(CSc3ncn[nH]3)cs2)cc1 | -1 | nt | 97 | i | 0.94 | nt | nt
O=C(Nc1ccc2nc(-c3ccco3)c(-c3ccco3)nc2c1)N1CCCCCC1 | 3 | -2.9 | 58 | i | 0.97 | nt | nt
COC(=O)c1cc(Cl)cc(Cl)c1OS(=O)(=O)N(C)C | -8 | nt | 100 | i | 0.93 | nt | nt
O=c1[nH]c2ccc(Cl)cc2c(-c2ccccc2)c1N1CCN(c2ccccn2)CC1 | 4 | 0.0 | 105 | i | 0.91 | 16 | 99
c1ccc2[nH]c(C3CC3)nc2c1 | 5 | nt | 111 | i | 1 | nt | nt
COc1ccc(NC(=O)c2cccc(OS(=O)(=O)N(C)C)c2)cc1 | 11 | nt | 100 | i | 0.87 | 41 | 98
CCN1CCN(Cc2ccc(NC(=O)c3ccc(C)c(NC(=O)C4=NN(c5ccccc5)C(=O)C4)c3)cc2C(F)(F)F)CC1 | nt | nt | 102 | i | 0.88 | nt | nt

Whole records, quoted from the list. Order of values: PKD1 inh | GALR2 agonist | RGS16-Gao HTS | HSV augment | HSV augment primary fold | Insulin prom inh | Insulin prom inh cell count
c1ccc(Nc2nc(CSc3ncn[nH]3)cs2)cc1 in the list: -1 | nt | 97 | i | 0.94 | nt | nt
CCN1CCN(Cc2ccc(NC(=O)c3ccc(C)c(NC(=O)C4=NN(c5ccccc5)C(=O)C4)c3)cc2C(F)(F)F)CC1 in the list: nt | nt | 102 | i | 0.88 | nt | nt
Cc1ccc(N/N=C/c2ccc3c(c2)OCCO3)cc1Cl in the list: -12 | 0.2 | 101 | i | 1.2 | nt | nt
CC(=O)c1c(C(C)=O)c(C)n(-c2ccc(C)c(NC(=O)c3ccccc3Cl)c2)c1C in the list: 0 | 1.0 | 103 | i | 0.9 | 13 | 64
Cc1c(C(=O)OCC2CCCO2)[nH]c2c1C(=O)CC(c1ccco1)C2 (stereo not drawn) in the list: 5 | -1.0 | 99 | i | 0.69 | -18 | 104

Next results.
SMILES | PKD1 inh | GALR2 agonist | RGS16-Gao HTS | HSV augment | HSV augment primary fold | Insulin prom inh | Insulin prom inh cell count
Cc1ccccc1OCCNc1cc(N2CCCCC2)ccc1[N+](=O)[O-] | 5 | -3.3 | 92 | i | 1.1 | 13 | 153
NC1=NC(=O)CC(C(=O)NCc2ccccc2)S1 (stereo not drawn) | -8 | -2.0 | 105 | i | 1 | 32 | 120
COc1ccc(C)cc1S(=O)(=O)NCCc1ccccc1 | 2 | -1.3 | 104 | i | 0.95 | 10 | 87
CCOC(=O)c1ccc(NC(=O)Cc2coc3cc4c(cc23)CCC4)cc1 | 0 | -0.7 | 105 | i | 0.93 | -30 | 107
Cc1cc(OC(=O)c2c(Cl)cc(Cl)cc2Cl)nc(C)n1 | 17 | -2.2 | 99 | i | 0.76 | nt | nt
O=C(CSc1cccc2cccc(Cl)c12)OCC(=O)N1CCN(C(=O)c2ccco2)CC1 | -5 | -2.6 | 59 | nt | nt | 34 | 82
Cc1ccccc1NC1=C(Cl)C(=O)OC1OC(=O)c1ccccc1C (stereo not drawn) | -11 | nt | 98 | i | 0.93 | nt | nt
COc1cc(CN2CCC(C(=O)N3CCN(c4ccccc4F)CC3)CC2)cc(OC)c1O | 13 | -0.3 | 98 | i | 0.91 | -73 | 100
CCOc1cc(C2C(C#N)=C(N)OC3CCCC(=O)C32)ccc1OCCN1CCOCC1 (stereo not drawn) | -6 | -1.8 | 103 | i | 1.1 | -9 | 86
Cc1nc(N2CCN(S(=O)(=O)c3ccccc3)CC2)c2cc(-c3ccccc3)sc2n1 | 4 | -0.5 | 108 | i | 0.94 | -81 | 65
CC(/C=C1\SC(=S)N(CCC(=O)Nc2nc(C)cs2)C1=O)=C\c1ccccc1 | nt | nt | 92 | i | 0.86 | nt | nt
CC(C)(C)C(=O)Nc1c(Cl)cccc1OC(F)(F)F | nt | nt | 101 | i | 1.1 | nt | nt
O=S(=O)(NCCSc1nnc(-c2ccco2)n1-c1ccccc1)c1ccccc1 | -6 | -2.4 | 102 | i | 0.99 | -10 | 71
COc1cccc(Cn2cccc(NC(=O)Nc3ccc(C#N)cc3)c2=O)c1 | -1 | -2.4 | 96 | i | 1.1 | -46 | 85
Cc1c(C(=O)OC(C)C)sc2nc[nH]c(=O)c12 | 0 | 0.8 | 102 | i | 0.89 | 29 | 105
Cc1ccc(C(=O)O/N=C(/c2nonc2N)N(C)C)cc1 | 7 | -1.7 | 105 | i | 0.88 | nt | nt
CCOC(=O)c1cc(CC)sc1NC(=O)c1cc(OC)c(OC)c(OC)c1 | 6 | -0.9 | 111 | i | 1.1 | -32 | 112
COc1ccc(N(CC(=O)NCCSCc2ccco2)S(=O)(=O)c2ccccc2)cc1 | -1 | nt | 101 | i | 0.99 | -56 | 126
O=C(Cn1ncc2c3ccccc3n(Cc3ccccc3)c2c1=O)NCc1ccco1 | nt | nt | 93 | i | 0.94 | nt | nt
CCc1nnc(NC(=O)CCC(=O)N2CCN(Cc3cc(Cl)ccc3OC)CC2)s1 | -5 | -1.7 | 101 | i | 0.89 | -28 | 183
N#Cc1c(N)n(-c2cccc(C(=O)O)c2)c2nc3ccccc3nc12 | nt | nt | 98 | ? | nt | nt | nt
Cc1cccc(NC(=O)Cn2c(=O)n(C)c3ccccc32)c1 | -1 | -1.3 | 100 | i | 1 | -5 | 80
c1ccc2c(c1)CSc1sccc1C2=C1CCNCC1 | 6 | -2.2 | 107 | i | 0.72 | -38 | 118
Cc1cccc(NC(=S)Nc2ccccn2)c1C | 7 | 1.1 | 103 | i | 1.2 | nt | nt
Cc1occc1C(=O)N1CCN(C(=O)C2CCCO2)CC1 (stereo not drawn) | 0 | -0.4 | 103 | i | 0.97 | 3 | 104

Next part
SMILES | PKD1 inh | GALR2 agonist | RGS16-Gao HTS | HSV augment | HSV augment primary fold | Insulin prom inh | Insulin prom inh cell count
COc1ccc(/C=N/n2c(SC)nnc(C(C)(C)C)c2=O)cc1OC | -2 | 1.6 | 99 | i | 0.9 | 30 | 121
CC(=O)N1CCC(N(CCCOC(C)C)C(=O)Nc2ccc(C)c(C)c2)CC1 | -10 | -1.3 | 101 | i | 1.1 | -31 | 131
CN(C)CCCN1C(=O)c2oc3ccc(F)cc3c(=O)c2C1c1cccnc1 (stereo not drawn) | -8 | -1.2 | 101 | i | 0.88 | nt | nt
O=C(CN(Cc1cccs1)C(=O)CCC(=O)Nc1nccs1)NCc1ccccc1 | 0 | -2.5 | 90 | i | 0.8 | -8 | 102
CC(C)NC(=O)CSc1nncn1-c1ccccc1 | -9 | -1.4 | 103 | i | 1 | nt | nt
COc1ccc(C(=O)NC(=S)NNC(=O)COc2ccccc2)cc1 | -3 | nt | 99 | i | 0.84 | nt | nt
COc1cccc(C2C3=C(N=c4s/c(=C\c5ccc(OCC(=O)O)cc5)c(=O)n42)c2ccccc2CC3)c1 (stereo not drawn) | nt | nt | 85 | i | 0.97 | nt | nt
CC1=CC(C)(C)Nc2ccccc21 | 19 | -2.3 | 13* | i | 0.87 | -25 | 87
CCOC(=O)c1cc2c(=O)n3ccccc3nc2n(C(C)C)c1=NC(=O)c1c(-c2c(F)cccc2Cl)noc1C | -1 | 4.0 | 101 | i | 0.94 | nt | nt
CCN1CCCC1CNC(=O)C(=O)NCCc1ccc(OC)c(OC)c1 (stereo not drawn) | 3 | nt | 99 | i | 0.97 | nt | nt
Nc1nc(SCc2nc3scc(-c4cccs4)c3c(=O)[nH]2)n[nH]1 | 1 | -1.9 | 101 | i | 1 | -30 | 215
Nc1nc2nc(-c3cccs3)cc(C(F)(F)F)n2n1 | -5 | nt | 98 | i | 0.9 | nt | nt
COc1ccc(OC)c(Nc2nc(NCCC(C)C)nc(N)c2[N+](=O)[O-])c1 | nt | nt | 89 | i | 0.81 | nt | nt
Cc1ccc(N(C(=O)CCl)C(C(=O)NC2CCCCC2)c2cccnc2)cc1C (stereo not drawn) | -1 | 0.2 | 107 | i | 0.95 | -163 | 2
CCOc1ncccc1C(=O)OCC(=O)N1CCN(S(=O)(=O)c2ccc(Cl)cc2)CC1 | -5 | -0.6 | 107 | i | 0.97 | -61 | 66
N#Cc1cncc(-c2ccc3c(c2)OCCOCCOCCOCCOCCO3)n1 | -5 | -1.1 | 107 | i | 0.9 | 23 | 177
CCN(CC)c1ccc(C(=O)N/N=C(\C)c2cccc(OC)c2)cc1 | 3 | 0.7 | 103 | i | 0.88 | -6 | 136
COc1ccccc1NC(=O)c1csc2c1CCCC2 | 3 | -1.9 | 100 | i | 0.96 | -13 | 140
CC12CN3CC(C)(CN(C1)C3c1ccc3c(c1)OCO3)C2=O (stereo not drawn) | 8 | -2.7 | 108 | i | 0.93 | -438 | 85
CCN(CC)c1ccc(/C=N/NC(=O)Cc2cccs2)cc1 | -11 | 0.0 | 100 | i | 0.93 | 46 | 89
Cc1ccc(N(Cc2cc3cc(C)ccc3[nH]c2=O)S(=O)(=O)c2ccccc2)cc1 | 6 | -0.5 | 106 | i | 0.95 | -26 | 118
Brc1ccc(N=C/C=C/C=C/Nc2ccc(Br)cc2)cc1 | -5 | -2.5 | 58 | i | 1.3 | 79* | 73*
COc1ccc2c(c1)N(C)C(=O)CC(c1ccccc1)=N2 | -2 | -0.2 | 104 | i | 1.1 | nt | nt
Cc1ccc(-c2nnc(SCC(=O)N/N=C/c3ccccc3C(=O)O)n2-c2ccccc2)cc1 | 1 | nt | 119 | i | 0.98 | -14 | 47
CC(NC(=O)C1CCN(S(=O)(=O)N2CCCCCC2)CC1)c1ccccc1 (stereo not drawn) | -8 | -1.9 | 84 | i | 1.1 | nt | nt
COCC(C)NC(C(=O)Nc1ccc(Cl)c([N+](=O)[O-])c1)c1ccccc1 (stereo not drawn) | -2 | -1.9 | 102 | i | 1 | -84 | 103
CCc1ccc(C(=O)/C=C/Nc2ccc(S(=O)(=O)Nc3onc(C)c3C)cc2)cc1 | -1 | -0.1 | 109 | i | 0.82 | 41 | 131
